Beta apoptosis – inhibitors of cytokine-induced beta cell apoptosis, primary screen, luminescence; 300,000 compounds, 0.8% hits; AID 435005, 2010; INS-1E cytokine-induced death, ATP luminescence, 48 h; percent of positive-control rescue, neutral wells zero; protection from apoptosis, % (concentration not given with the values);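 active means all replicates at 75% or more, or half of them and the mean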;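 further: 0% = cytokine-treated negative control wells and 100% = positive control rescue; higher means more ATP so stronger rescue from cytokine killing; wells of about 40 µL received 100 nL stock; the first replicate is given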
Ecoli rRNA inh – reduced GFP signal of wild-type E. coli, primary screen, bacterial rRNA inhibitor project, GFP/RFP fluorescence, OD600, single point. E. coli WT GFP vs humanized-ribosome RFP mutants, 24 h; active compounds read low; DMSO median 0, no signal -100. 350,000 compounds, 1.6% hits. GFP signal change (wild-type ribosome), % (no concentration beside the values);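 active means significant combined selectivity score with lowered wild-type GFP, culture density cut under 30%, mutant RFP and density less affected; inactive means any of these conditions unmet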; further: one replicate is shown; some compounds called inactive have numbers as strong as hits
A1 inh – caspase 3/7 activation in MEF A1-2A-BIM cells, primary screen, A1 inhibitor project, cell-based, luminescence, HTS | 330,000 compounds, 0.066% hits | caspase activation, % (test concentration not listed) | AID 2462, 2010 | Caspase-Glo 3/7 luminescence, 3 h; percent of clofoctol response, vehicle zero;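 active means over half of replicate activation scores above 10%, or exactly half above 10 with the replicate mean above 10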;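 further: wells of about 30 µL received 50 nL stock; many hits fall short of the cut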
FGF22 binding – binders of human FGF22 protein, primary screen, FGF22 synaptogenesis inhibitor project, biophysical, thermal shift, single point. recombinant FGF22 thermal shift, SYPRO orange fluorescence; percent of sucrose octasulfate shift, DMSO zero. calls only at 9.99 µM. 340,000 compounds, 1.5% hits;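 active means melting point raised past a set limit in the mean and every replicate; three in four hits are not shown here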
Target sequence (Q9HCT0 whole entry, looked up): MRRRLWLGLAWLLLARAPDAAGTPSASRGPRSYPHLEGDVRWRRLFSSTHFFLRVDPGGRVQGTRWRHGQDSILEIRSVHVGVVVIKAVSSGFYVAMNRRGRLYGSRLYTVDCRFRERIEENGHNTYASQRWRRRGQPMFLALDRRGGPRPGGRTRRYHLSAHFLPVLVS
UCH37 inh – inhibitors of human UCH37 deubiquitinase, primary screen, biochemical, Ub-AMC cleavage, fluorescence. purified proteasome/UCH37. inhibition, % (test concentration not listed). 330,000 compounds, 0.33% hits;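 active means mean of two replicates above 20%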;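 further: 0% = compound-free wells with enzyme and 100% = wells lacking proteasome; stock transfer was 100 nL into about 20 µL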
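system = Proteasome-associated human UCH37 deubiquitinase | amount = 0.15 nM proteasome as dispensed | medium = pH 7.4 Tris-HCl (50 mM) with ovalbumin, ATP-MgCl2, DTT | incubation = 30 min preincubation with enzyme, 25 min cleavage at room temperature | detection = AMC fluorescence 355/460 nm | read-out basis = percent inhibition | controls = no-proteasome and no-compound wells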
E coli growth – E. coli growth inhibition, primary screen, OD600 | 330,000 compounds, 0.21% hits | OD600 absorbance (concentration not given with the values) | Escherichia coli growth, 23 h; active compounds read low;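 active means OD600 absorbance below the run mean of sample wells minus 3.6 SD, in any replicate, cut at about 0.56 in these data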;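 further: stock transfer was 300 nL into about 60 µL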
MLL AF4-AF9 inh – inhibitors of AF4 peptide binding to AF9, primary screen, biochemical, AlphaScreen, biotin-AF4 peptide, FLAG-AF9, single point; Protein AF-9 (Homo sapiens), P42568; inhibition, % at 10 µM; 350,000 compounds, 0.47% hits; AID 651704, 2012;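 active means every replicate reaching a set inhibition limit, whatever the replicate mean, cut at about 25% in these data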;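 further: 0% = plate neutral control median and 100% = total signal loss; the record names both 10 and 1 µM as test concentration; the first replicate is given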
Target sequence (P42568 whole entry, looked up): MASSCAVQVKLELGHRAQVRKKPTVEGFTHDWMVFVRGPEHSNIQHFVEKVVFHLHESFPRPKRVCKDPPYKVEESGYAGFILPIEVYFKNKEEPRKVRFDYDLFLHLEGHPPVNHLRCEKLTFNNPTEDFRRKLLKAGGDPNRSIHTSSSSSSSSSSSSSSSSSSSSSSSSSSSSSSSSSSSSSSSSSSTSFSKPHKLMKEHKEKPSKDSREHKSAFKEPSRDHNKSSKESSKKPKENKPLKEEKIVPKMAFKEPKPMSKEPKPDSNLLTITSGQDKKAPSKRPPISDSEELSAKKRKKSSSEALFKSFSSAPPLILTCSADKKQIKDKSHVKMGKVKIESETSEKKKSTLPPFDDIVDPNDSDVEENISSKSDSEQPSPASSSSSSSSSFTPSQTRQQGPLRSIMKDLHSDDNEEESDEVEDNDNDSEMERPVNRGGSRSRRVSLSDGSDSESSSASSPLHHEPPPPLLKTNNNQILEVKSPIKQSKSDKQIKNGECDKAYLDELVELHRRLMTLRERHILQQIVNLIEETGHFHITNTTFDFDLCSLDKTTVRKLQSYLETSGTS
T cruzi inh – inhibitors of intracellular T. cruzi growth, primary screen, luminescence, NIH3T3 host cells; T. cruzi beta-gal in NIH3T3, 90 h; inhibition, % (test concentration not listed); 300,000 compounds, 1.4% hits; AID 1885, 2009;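 active means mean inhibition across valid replicates above about 55%, limit read from the data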;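 further: signal also drops with host cell toxicity which is not excluded here; 0% = plate median of DMSO wells and 100% = zero luminescence signal; higher percent means less beta-gal luminescence so fewer parasites; stock transfer was 50 nL into about 50 µL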
Ecoli rRNA inh OD600 – also measured in Ecoli rRNA inh; calls as there; OD600 change, %; measured here: OD600 growth;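 optical density of the mix in the first replicate; 0 = DMSO median and -100 = no signal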
Ecoli rRNA inh RFP – also measured in Ecoli rRNA inh; calls as there; RFP signal change, %; measured here: RFP humanized mutant strains;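 first replicate; 0 = DMSO median and -100 = no signal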
Numbers without * were called inactive; i = inactive; . = not tested or not shown. These rows are one share of the data, so the mix of outcomes need not match the whole.

no.	structure	Beta apoptosis	Ecoli rRNA inh	Ecoli rRNA inh OD600	Ecoli rRNA inh RFP	A1 inh	FGF22 binding	UCH37 inh	E coli growth	MLL AF4-AF9 inh	T cruzi inh
1	O=C(CCn1c(=O)c2ccccc2n(Cc2cccnc2)c1=O)NCc1ccc2c(c1)OCO2	-6.7	.	.	.	-0.5	.	1.5	0.736	.	1.2
2	CCN(CC)c1nc2ccccc2[nH]c1=O	-8.3	-1.6	-6.7	3.1	0.3	i	4.6	0.734	1.9	-9.1
3	CCCN(CCC)C(=O)c1cc(S(=O)(=O)N2CCCCC2)c[nH]1	-3.2	-3.1	-6.6	4.3	-0.6	i	6.5	0.68	-3.6	4.1
4	O=C1C(Cl)=C(N2CCCCC2)C(=O)N1Cc1ccccc1	-2.1	.	.	.	0.1	.	5.7	0.726	.	13.4
5	Cc1noc(C)c1COC(=O)C1(c2cccc(F)c2)CCCC1	1.6	.	.	.	-1.1	.	1.1	0.721	.	5.7
6	CCOC(=O)/C(C#N)=C\c1ccc(O)c(OC)c1	1.9	.	.	.	-0.5	.	9.5	0.703	.	-2.1
7	Cc1cc(N2CCOCC2)c2c(N)cc(C)c(C)c2n1	-20.8	.	.	.	0.1	.	3.0	0.705	.	9.2
8	O=c1cc(C(O)C[N+](=O)[O-])occ1OCc1ccccc1 (stereo not given)	.	-3.2	-15.4	0.0	-0.9	i	1.8	0.625	-0.1	-8.8
9	CCOC(=O)c1sc2nc(C)n(CC(=O)NCC3CCCO3)c(=O)c2c1C (stereo not given)	-10.2	.	.	.	1.3	.	3.6	0.717	.	-20.8
10	O=C1CCCC2=C1C(c1ccncc1)c1c(nc(SCc3ccccc3Cl)[nH]c1=O)N2 (stereo not given)	-6.4	.	.	.	1.5	.	-56.3	0.758	.	.
11	Cc1ccccc1OCC(=O)Nc1cccc(S(=O)(=O)NC2=NCCCCC2)c1	-4.2	-7.6	-5.3	2.1	-1.3	i	4.1	0.679	-0.7	-3.2
12	CC(C(=O)Nc1ccc(O)cc1)c1cccc(C(=O)c2ccccc2)c1 (stereo not given)	-3.9	-36.8*	-27.3*	-4.6*	0.3	i	-0.1	0.649	2.6	-33.7
13	CCCC(=O)Oc1ccccc1C1SCc2cc(C)c(C)cc2CS1	1.9	.	.	.	-0.1	.	0.0	0.711	.	-22.3
14	O=C(NNc1ccccc1)Nc1cc(Cl)ccc1Cl	.	-37.9	-73.0	-13.9	.	i	1.2	0.654	4.2	.
15	CC(O)CN(Cc1cccc(Cl)c1)CC(C)O (stereo not given)	.	18.4	3.5	-7.5	.	i	0.8	0.731	8.5	-3.8
16	CC(=O)N1CCc2c(sc3c2c(=O)n(-c2ccccc2)c(=O)n3CC(=O)NCC2CCCO2)C1 (stereo not given)	-3.9	8.1	14.4	0.8	0.7	i	3.0	0.748	2.5	4.0
17	O=C1CCC(C(=O)N2CCCCO2)CN1Cc1ccc(Cl)cc1 (stereo not given)	0.5	7.1	6.4	3.2	1.2	i	2.0	0.652	0.2	-15.3
18	COc1ccc(C2C(C(=O)N3CCCC3)c3cc(OC)c(OC)cc3C(=O)N2C)cc1OC (stereo not given)	-2.3	.	.	.	0.5	.	-1.3	0.699	.	4.6
19	O=C1CCc2cc(NS(=O)(=O)c3ccc([N+](=O)[O-])cc3)cc3c2N1CC3	.	3.8	-6.2	-1.6	.	.	5.1	0.695	1.2	1.8
20	CCCCN(C(=O)c1cc2c(s1)CCCC2)c1c(N)n(CCC)c(=O)[nH]c1=O	2.0	.	.	.	0.5	i	1.1	0.714	-2.9	.
21	CC1=C2C3OC(=O)C(C)C3CCC2(C)C=CC1=NO (stereo not given)	.	-6.7	-5.8	2.5	.	.	3.4	0.715	-6.1	.
22	S=C(Nc1ccc(Br)cc1)NC1CCCC1	-1.5	-53.7	-77.3	-23.9	0.2	i	2.0	0.624	-1.9	-6.9
23	COC(=O)c1ccccc1NC(=O)CN(c1ccccc1)S(=O)(=O)N(C)C	-13.2	.	.	.	0.4	.	4.5	0.681	.	-4.7
24	CC(C)CC(NS(=O)(=O)c1ccccc1S(=O)(=O)NC(CC(C)C)C(=O)O)C(=O)O (stereo not given)	0.9	0.5	4.4	8.8	1.4	i	14.4	0.707	-38.1	-3.8
25	N#CC1=C(N)Oc2ccccc2C12C(=O)Nc1n[nH]c(-c3ccccc3)c12 (stereo not given)	-3.0	.	.	.	0.6	.	0.1	0.705	.	3.4
26	COc1ccccc1NC(=O)c1nn(-c2cccc(C(F)(F)F)c2)ccc1=O	0.8	.	.	.	0.4	.	3.4	0.739	.	-1.8
27	COc1ccc(C2NC(=O)c3ccccc3N2)cc1 (stereo not given)	-5.7	.	.	.	-1.4	.	-427.6	0.65	.	1.1
28	COC(=O)COc1ccc2c(=O)c(Oc3ccccc3Br)coc2c1	-10.2	18.9	16.4	-1.6	0.5	i	1.4	0.682	-0.5	-0.5
29	O=c1[nH]n(-c2cccc(Cl)c2)c2ncccc12	-4.2	.	.	.	-0.1	.	1.4	0.668	.	-13.6
30	COc1ccc(/C=N/NC(=O)c2cc(C34CC5CC(CC(C5)C3)C4)[nH]n2)cc1OC	5.5	4.2	4.4	0.7	-1.0	i	.	.	-3.9	1.4

(further entries)
no.	structure	Beta apoptosis	Ecoli rRNA inh	Ecoli rRNA inh OD600	Ecoli rRNA inh RFP	A1 inh	FGF22 binding	UCH37 inh	E coli growth	MLL AF4-AF9 inh	T cruzi inh
31	CCn1c(=O)[nH]c2cc(C(=O)N3CCN(c4ccccc4)CC3)ccc2c1=O	1.5	-6.8	-2.4	-9.6	0.7	i	-1.3	0.65	1.0	1.1
32	COc1ccc(OC)c(S(=O)(=O)N2CCN3CCCC3C2)c1 (stereo not given)	2.6	2.2	8.5	1.6	1.1	i	2.7	0.653	8.1	8.7
33	Cc1ccc(C2(O)CN(c3ccccc3)C3=[N+]2CCS3)cc1 (stereo not given)	9.4	.	.	.	1.4	.	6.7	0.692	.	9.6
34	Cc1cc(-c2ccc(S(=O)(=O)Nc3ccc(C#N)cc3)s2)on1	10.1	-5.3	-7.1	1.1	-0.4	i	1.9	0.677	-1.9	4.1
35	O=C(CNC(=O)C1COc2ccccc2O1)Nc1ccc(F)c(F)c1 (stereo not given)	-1.2	3.7	8.4	-2.4	-0.1	i	4.8	0.695	-2.7	.
36	O=C(NC1CCCCC1)c1c2c(nc3ccccc13)CCC2	-0.1	9.3	8.6	-0.2	-0.4	i	-1.7	0.671	-2.7	-9.3
37	Cc1c(CNC(=O)c2cnn3c2NC(c2ccc(Br)cc2)CC3C(F)(F)F)cnn1C (stereo not given)	-4.4	.	.	.	1.3	.	-1.0	0.7	.	5.0
38	COc1cc(SSc2cc(OC)cc([N+](=O)[O-])c2N)c(N)c([N+](=O)[O-])c1	-2.6	1.6	13.6	9.0	-0.9	i	14.5	0.63	-3.0	52.6
39	CCOc1ccc(N2C(=O)CC(NC3CCN(C(=O)c4ccc(F)cc4)CC3)C2=O)cc1 (stereo not given)	0.3	3.3	14.5	0.6	0.0	i	-1.7	0.727	-1.3	-0.9
40	COc1ccc(-c2nnc(NC(=O)c3ccc(F)cc3)o2)cc1	6.7	-36.1	-62.9	-11.1	-0.3	i	5.1	0.549	-0.1	46.1
41	COc1ccccc1NC(=S)N1CCN(Cc2ccc3c(c2)OCO3)CC1	1.4	.	.	.	0.1	i	3.0	0.671	0.2	-0.9
42	COc1ccc(S(=O)(=O)N2CCCCC2)cc1NC(=O)CCNC(=O)c1ccc(Cl)cc1	6.8	8.9	23.4	3.3	0.3	i	2.5	0.697	-1.3	.
43	COc1ccc(C(=O)Nc2oc(-c3ccccc3)c(-c3ccccc3)c2C#N)cc1OC	1.4	.	.	.	0.6	.	-13.2	0.722	.	26.0
44	OCCNCc1cc(Br)ccc1OCc1ccc(Cl)cc1	3.8	.	.	.	0.6	.	0.3	0.632	.	-16.8
45	Cc1ccc(C(=O)Cc2nc3ccccc3[nH]2)cc1	-5.2	-3.3	-0.9	3.4	-1.3	i	6.2	0.653	1.8	4.9
46	Cc1cc2c(NC(=O)Nc3ccc(C(C)(C)C)cc3)cccc2nn1	5.5	-32.5*	8.4*	11.4*	-0.8	i	2.7	0.628	15.6	14.4
47	COc1ccc(N2C(=S)NC(C)(C)CC2(C)c2ccc(OC(C)=O)cc2OC(C)=O)cc1 (stereo not given)	-0.9	18.6	13.4	1.1	0.0	i	1.5	0.614	-1.5	-22.1
48	CC(C)(C)NC(=O)c1cccc(NC(=O)CSc2ccccc2)c1	-1.4	.	.	.	0.6	.	5.3	0.652	.	2.2
49	CCOC(=O)C1(CCCc2ccccc2)CCN(C(=O)c2cc(C)nc(C)n2)CC1	2.0	-7.2	-3.9	0.0	1.4	i	5.5	0.631	-2.2	1.4
50	CCC(CC)c1nnc(NC(=O)CS(=O)(=O)c2ccccc2)s1	0.4	-4.2	-3.6	-0.1	-0.2	i	5.9	0.669	0.0	2.2
51	CCC(C)[C@@H]1NC(=O)N(CCCN2CCCC2=O)C1=O (stereo not given in full)	3.6	16.8	6.1	3.7	0.1	i	0.9	0.685	-3.2	-2.6
52	Cc1ccc(NC(=O)CCC(=O)N2CCOCC2)nc1	-3.2	6.8	6.2	-1.2	0.4	i	3.3	0.701	-1.1	-14.5
53	CCCCN1C(=S)NC[C@@H]1C(C)CC (stereo not given in full)	-0.5	4.3	1.0	3.5	0.2	i	16.1	.	-1.5	-13.1
54	CCCCCn1cnc2sc(CC)cc2c1=O	0.7	-18.1	-26.0	-6.7	-0.2	i	-1.9	0.662	6.4	7.8

Compound activity as filed in PubChem.
